# Compound activity from PubChem.
# TRPML1 inh – blocks the human TRPML1 channel | Q9GZU1 | TRPML1-inducible cells, Ca2+ dye fluorescence, FDSS; stronger effect = lower value; inhibition of EC80 agonist-evoked calcium signal | activity change, negative = inhibition, % (test concentration not listed) | 0.02% of 390,000 active | AID 624415; in the data active means activity change below about -50%; inconclusive means about -30% to -50%; inactive means above about -30%;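 also: stimulus is agonist 54-4 at its EC80 concentration; % is scaled to controls: 0 for no effect and ±100 for the full control effect; compound concentration not given in the record; the text of the record puts the active cut at -80%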
# Target sequence (Q9GZU1 whole entry, looked up): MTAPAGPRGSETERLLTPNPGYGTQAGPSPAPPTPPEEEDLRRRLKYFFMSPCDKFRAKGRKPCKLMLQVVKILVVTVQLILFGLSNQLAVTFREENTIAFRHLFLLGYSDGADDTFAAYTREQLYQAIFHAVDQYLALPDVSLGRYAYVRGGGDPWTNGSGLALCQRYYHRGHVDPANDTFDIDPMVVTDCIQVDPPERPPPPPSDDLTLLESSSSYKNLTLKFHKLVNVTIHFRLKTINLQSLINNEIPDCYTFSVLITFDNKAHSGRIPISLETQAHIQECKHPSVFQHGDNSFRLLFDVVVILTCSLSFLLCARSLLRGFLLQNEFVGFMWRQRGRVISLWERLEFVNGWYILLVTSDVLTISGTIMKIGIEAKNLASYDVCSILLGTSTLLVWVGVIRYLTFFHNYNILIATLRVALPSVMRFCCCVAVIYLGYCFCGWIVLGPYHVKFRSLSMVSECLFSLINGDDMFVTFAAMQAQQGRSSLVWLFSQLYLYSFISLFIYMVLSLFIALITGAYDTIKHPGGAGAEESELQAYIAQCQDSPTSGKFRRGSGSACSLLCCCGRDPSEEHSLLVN
#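 Tet-induced TRPML1-DL cells loaded with Ca8 no-wash calcium dye were read kinetically on FDSS. Compound addition was followed by EC80 agonist 54-4 (4 uM final); inhibition was read over 110 s.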
# Menin-MLL FL inh – menin-MLL binding inhibition, fluorescein peptide | Fluorescence polarization, fluorescein-MLL peptide displacement from menin | FP activity change, % at 61.4 µM | 290,000 tested, under 10 active; inconclusive = falling polarisation curve, or a change in total fluorescence; inactive = total fluorescence flat and polarisation flat or rising; no compound was filed as active; the % refers to the polarisation; negative = inhibition;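 also: % of control where 0% means no effect; inhibitors lower the polarisation; unlabelled MLL peptide was the positive control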
# ClpP mod – qHTS Assay for Activators of ClpP; ATP-dependent Clp protease proteolytic subunit (Bacillus subtilis (strain 168)), P80244; purified B. subtilis ClpP, FRET peptide cleavage, 20 min; Potency, µM (top dose mostly 57.5 µM), for the others: at the highest dose activity change, negative = active; 1.9% of 340,000 active; AID 651965, 2013; active = well fitted falling curve with a large enough effect; inconclusive = small, poorly fitted or top-dose-only effect; inactive = no such curve, though single readings can be large or run the other way; also: potency is read from the fitted curve at half-maximal effect; the source files actives as falling curves though it sought activators and does not explain the sign; nearly all actives have a fitted effect of over 65% in size; many hits overshoot -100%
# Target sequence (P80244 whole entry, looked up): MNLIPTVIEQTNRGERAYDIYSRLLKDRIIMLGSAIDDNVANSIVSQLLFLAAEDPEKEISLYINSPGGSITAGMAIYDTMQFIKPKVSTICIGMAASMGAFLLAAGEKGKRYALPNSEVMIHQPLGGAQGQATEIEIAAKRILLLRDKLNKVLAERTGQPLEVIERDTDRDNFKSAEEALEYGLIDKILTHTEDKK
#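 FRET quenching reversal measured ClpP activation: 10 microg/mL B. subtilis ClpP at pH 8 with the FRET-FV decapeptide, read at 430 nm after 320 nm excitation. The 20-min minus 0-min signal was scaled between DMSO/no-enzyme wells and ADEP (5.8 microM final).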
# gsp antagonist – antagonizes gsp, the McCune-Albright syndrome mutation; Potency, µM (titrated, usually from 76.9 µM), without a hit: at the highest dose activity change, negative = inhibition, hits mostly inhibitors; gsp-mutant cells, cAMP HTRF, 30 min; control for the full effect not named in the record; 0.4% of 340,000 active; active = falling curve of any shape with a large fitted effect; inconclusive = falling curve, mostly with a smaller effect; inactive = flat or rising curve; cell line not stated here;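 also: intracellular cAMP measured with PDE inhibitor Ro 20-1724 present during compound exposure; potency is read from the fitted curve at half-maximal effect; % is scaled to controls: 0 for no effect and ±100 for the full control effect; nearly all actives have a fitted effect of over 65% in size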
#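 Cells in G418 medium, seeded 16-24 h, 37C; buffer exchange to DPBS + 1 mM CaCl2, 0.5 mM MgCl2, 0.05% BSA; cpds in DMSO + […] (300 uM stock), 30 min 37C; HTRF cAMP detection.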
# TRPV1 potentiator – human TRPV1 potentiation | Q8NER1 | TRPV1-expressing cells, Fluo-8 calcium influx, capsaicin EC20 potentiation; host cell line not named in the record; control for the full effect not named in the record | potentiation, % at 8.33 µM | 0.02% of 320,000 active | AID 540277; active means potentiation above 80%; inconclusive means 30% to 80%; inactive means below 30%; also: 0% is about no effect
#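 TRPV1-expressing cells were cultured overnight at 35.5C and loaded with Fluo-8 calcium dye for 40 to 90 min at room temperature. After a 10 s baseline, compound was added and calcium influx was read kinetically for 3 min (ex 480/em 520 nm).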
# gsp ag – agonists of gsp mutant (McCune-Albright syndrome) | Potency, µM (highest dose often 76.9 µM), for inactives: top-dose activation (cAMP increase), most hits filed as activators | 0.13% of 340,000 active | gsp mutant cells, cAMP HTRF, 30 min; control for the full effect not named in the record; active = well fitted activation curve with a large enough effect; inconclusive = small, poorly fitted or top-dose-only effect, or another doubt; inactive = no such curve, though single readings can be large or run the other way; cell line not stated here;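 also: phosphodiesterase inhibitor Ro 20-1724 added with compounds to block cAMP breakdown; potency is read from the fitted curve at half-maximal effect; nearly all actives have a fitted effect of over 60% in size; about a fifth of the inactives were tested at one dose only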
#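 Cells stably selected in G418 were plated at 2000/well, grown 16-24 hr, then given compounds in DMSO with the PDE inhibitor […] (300 uM solution added) for 30 min at 37C; cAMP was read by HTRF.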
# Sfp inh – Sfp phosphopantetheinyl transferase inhibition | Biochemical Sfp PPTase activity, qHTS | Potency, µM, for inactives: max response, negative = inhibition, actives largely listed as inhibitors | Q9F4F7 | 3.5% of 310,000 active; active = well fitted inhibition curve with a large enough effect; inconclusive = small, poorly fitted or top-dose-only effect, or another doubt; inactive = no such curve, though single readings can be large or run the other way;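 also: the enzyme is Sfp with the accession as filed and its product quenches rhodamine fluorescence; potency is read from the fitted curve at half-maximal effect; 0% = enzyme reaction without inhibitor and -100% = no enzyme wells; top concentration of the series not given in the record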
#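 Buffer: 50 mM Hepes-Na pH 7.6, 10 mM MgCl2, 0.01% Nonidet P-40, 0.01% BSA. Enzyme 15 nM, pre-exposed to compound 15 min; substrates then added and fluorescence change tracked over 30 min.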
# * = called active by the depositor; ? = inconclusive; . = not tested or not shown; & = joins results of further samples; [ ] = dose if it differs, or a comment.
SMILES,TRPML1 inh,Menin-MLL FL inh,ClpP mod,gsp antagonist,TRPV1 potentiator,gsp ag,Sfp inh
O=C(NCc1ccco1)c1nn2cccnc2c1Cl,-7,0.2,0.6%,12%,16,?,17%
COc1cc(/C=N/NC(=O)CN(Cc2ccccc2)S(=O)(=O)c2ccc3c(c2)OCCO3)ccc1O,-4,1.6,-5.0%,12%,0,-40%[inhibitor],0%
CC(NC(N)=O)C(=O)NCC(=O)OCc1ccccc1 (stereo not given),14,-0.9,-0.5%,8%,-1,-32%,17%
CN(C(=O)COC(=O)c1ccc(S(=O)(=O)N2CCCC2)cc1)c1ccccc1,-20,0.4,.,-9%,-3,2%[15.4 µM],-5%
Cc1ccc(C2=NOC(=O)/C2=C\C=C\c2ccccc2)cc1,21,?,32µM*,-11%,-4,12%[15.4 µM],28µM*
COc1ccc(C(=O)OCC(=O)Nc2ccc(F)c(F)c2)cc1OC,4,0.6,-0.4%,11%,-31,-3%,3%
COc1ccc(C(C)C)cc1S(=O)(=O)N1CC(C)OC(C)C1 (stereo not given),-11,-2.4,-2.7%,7%,1,0%[15.4 µM],17%
COc1ccc(CC(=O)NCCc2cnc[nH]2)cc1,.,-8.4,-3.7%,6%,-23,4%,2%
CCCCn1c(N)c(N(CCOC)C(=O)CCN2C(=O)C3CC=CCC3C2=O)c(=O)[nH]c1=O (stereo not given),17,.,-2.7%,10%,.,-6%,.
CC(C)[C@H](NC(=O)c1ccccc1)C(=O)NC1=NCCS1,1,.,1.1%,19%,.,-135%[inhibitor],.
O=C(O)c1ccc2c(c1Sc1ccccc1)C(=O)c1ccccc1C2=O,.,1.6,.,.,4,.,27%
COc1ccc(NC(=O)CCNC(=O)N2CC(=O)Nc3ccccc32)c(OC)c1,-23,.,-0.7%,-6%,22,30%,12%
OC(CNC1CCCCCC1)COc1cccc2ccccc12 (stereo not given),-20,5.5,-6.4%,11%,6,-9%,-20%
Cn1c(C(=O)O)c(CC(=O)N2CCC(Cc3ccccc3)CC2)c2ccccc21,2,2.7,-16%,-18%,15,-9%,6%
COc1cc(/C=C2\SC(=S)N(NC(=O)c3ccncc3)C2=O)ccc1O,.,?,1.1%,-27%,-6,8%,5%
O=C(CCl)N1CCN(S(=O)(=O)Cc2ccccc2)CC1,1,.,1.7%,-33%,7,-10%,.
C[C@@H]1CN([C@H](C)CO)C(=O)CCCn2nncc2CO[C@H]1CN(C)C(=O)c1ccccc1,-15,.,-0.7%,.,.,9%,.
Cn1c(SCCC(=O)O)nnc1-c1ccncc1,0,1.5,-1.2%,8%,26,11%,20%
C=CCn1c(Cc2cccs2)nnc1SCC(=O)NC1CC1,-18,.,0.9%,-3%,-2,?,6%
Cc1cc(C)cc(Nc2nc3c([nH]2)c(=O)n(C)c(=O)n3C)c1,8,-7.3,-1.1%,-14%,-19,1%,-22%
CC1CCCCC12NC(=O)N(Cn1nnc3ccccc3c1=O)C2=O (stereo not given),5,0.6,-1.6%,10%,-5,?,6%
COc1ccccc1N(CC(=O)NC1CCCCC1)C(=O)CNC(=O)c1cccs1,-10,-3.6,.,-7%,8,-2%[15.4 µM],-1%
CN(C(=O)c1ccncc1)C1CC(C)(C)N(O)C(C)(C)C1,-25,-1.7,1.7%,-5%,-5,-6%,10%
CC(C)c1nc(SCC(=O)NC2CCCC2)c2c(=O)n(C)c(=O)n(C)c2n1,-10,.,-2.8%,-8%,-13,?,9%
O=S(=O)(c1ccc(Br)cc1)N1CCOC12CCCCC2,24,1.7,.,-20%,11,4%[15.4 µM],-13%
CSCC[C@H](NC(=O)COc1ccc(Cl)cc1Cl)c1nc2ccccc2[nH]1,25,1.9,-2.7%,-48%,-12,-8%,12%
CC1CC(C)(C)C2=NCCN21 (stereo not given),1,.,0.4%,.,.,1%,.
O=C(CCN1CCN(Cc2ccccc2)CC1)Nc1cccc(Br)c1,-12,-1.9,-0.1%,6%,-11,1%[15.4 µM],6%
COc1ccc(C2C3=C(CC(C)(C)CC3=O)Nc3c2c(=O)[nH]c(=O)n3Cc2ccccc2)cc1OC (stereo not given),11,?,-5.2%,-17%,24,0%,-5%
O=C(COC(=O)c1cc(S(=O)(=O)N2CCOCC2)c(Cl)cc1Cl)Nc1ncc(C(F)(F)F)cc1Cl,24,8.6,-1.9%,14%,2,39%,12%
O=C(COC(=O)CCN1C(=O)/C(=C\C=C\c2ccccc2)SC1=S)Nc1ccc(Br)cc1,17,?,.,-19%,12,4%,-23%
COc1ccc(S(=O)(=O)N(C)c2ccc(C(=O)N3CCN(C)CC3)cc2)cc1,-3,-2.8,.,10%,14,5%[15.4 µM],6%
Cn1c(=O)c2c(nc(-n3ccnc3)n2Cc2ccc(Cl)cc2Cl)n(C)c1=O,-4,-2.5,0.8%,-5%,-5,6%,4%
CC(CCC(=O)O)C1CCC2C3C(O)CC4CC(O)CCC4(C)C3CC(O)C12C (stereo not given),-4,-2.0,-2.6%,-2%,2,.,15%
CCOc1ccc(NC(=O)c2ccc(Cl)c(NC(=O)c3ccco3)c2)cc1,-2,-0.6,-2.0%,-2%,3,13%[15.4 µM],-2%
COc1ccc(CC(=O)NNC(=O)c2ccccn2)cc1,2,0.5,.,6%,-1,-38%,23%
COc1cc(SC)ccc1C(=O)OCc1nc2ccsc2c(=O)[nH]1,5,.,-1.4%,6%,9,?,.
CCCCCCOc1ccc(OCC(O)CN2C(=O)NC(C)(C)C2=O)cc1 (stereo not given),-6,5.0,0.6%,0%,-5,-12%,4%
Cc1ccc(OCCNC(=O)c2cc(C3CC3)nc3c2cnn3C(C)C)cc1,12,.,-19%,-15%,14,0%,.
COc1nc(C#N)c(N2CCOCC2)o1,13,0.3,1.3%,8%,-9,4%,8%
CCCCn1nc(CC(=O)O)c2ccccc2c1=O,-2,2.6,-11%,-2%,-3,-56%[inhibitor],11%
CCC(=O)Nc1nc(C)c(-c2csc(Nc3ccccn3)n2)s1,9,-1.5,-24%,-2%,0,0%,?
CCNC(=O)CN(c1ccc(C)cc1)S(=O)(=O)c1ccccc1,-14,-0.4,-3.8%,3%,-13,21%,21%
O=c1[nH]c2cc(NCCO)c([N+](=O)[O-])cc2[nH]1,12,-7.4,-0.9%,-23%,0,-69%[inhibitor],-20%
O=C(NC1=NCCS1)c1cc(-c2cccs2)nc2ccccc12,-3,6.1,.,-20%,-2,-13%[15.4 µM],2%
CCc1ccc(NC(=O)CSc2nnc(C)c(=O)n2N)cc1,-3,.,-1.7%,3%,-6,16%,19%
O=C(CCC(=O)Nc1ccc(Br)cc1)N/N=C/c1ccccc1O,-5,0.6,.,-4%,14,7%,-14%
O=C(CSc1nncs1)NNC(=O)c1ccccc1Br,1,.,.,9%,.,4%,.
CCC(Sc1nncn1C)C(=O)Nc1nnc(-c2ccc(Cl)cc2)s1 (stereo not given),11,-0.6,-10%,-17%,7,-46%[inhibitor],18%
NS(=O)(=O)c1ccc(CNC(=O)/C=C/c2c(F)cccc2Cl)cc1,-11,0.4,0.5%,11%,4,9%,20%
# (listing goes on)
SMILES,TRPML1 inh,Menin-MLL FL inh,ClpP mod,gsp antagonist,TRPV1 potentiator,gsp ag,Sfp inh
O=C(O)c1cnn2c(C(F)(F)F)cc(-c3ccccc3)nc12,7,1.8,0.63µM*,-21%,-10,-2%,9%
Cc1ccc(S(=O)(=O)c2nc(-c3cccs3)oc2N2CCC(C(N)=O)CC2)cc1,-10,.,.,8%,.,-17%,.
Cc1ccc(NS(=O)(=O)c2ccc3[nH]c(=O)oc3c2)c(C)c1,31&-19,.,-1.7%&0.7%,4%,5,?,9%
CCC(/C=N/NC(=O)C1COc2ccccc2O1)CC (stereo not given),-3,2.2,-0.1%,2%,1,-9%,-7%
CCOC(=O)c1cc(C#N)c(SCC(N)=O)[nH]c1=O,32,?,3.7%,-5%,16,15%,20µM*
Cc1cnc(C(=O)OCC(=O)NCCc2ccccc2)cn1,-12,9.1,-1.8%,0%,8,-25%,9%
CC1(C)C(c2cccs2)=[N+]([O-])C2(CCCCC/C2=N\NC(N)=O)N1O (stereo not given),-10,0.2,-1.6%,5%,1,-28%,4%
COC(=O)CNC(=O)c1cccs1,17,3.6,-3.6%,5%,-18,-6%,10%
O=C(NC1CCCCC1)c1ccc(Cn2cc(Br)cn2)o1,-3,-0.4,-1.4%,4%,2,20%,1%
CC1(C)Cc2cccc(OCC(=O)NCc3cccs3)c2O1,3,.,-30%,1%,-9,-9%[15.4 µM],.
COc1cc(C)c(NC(=S)Nc2ccc(Cl)c(Cl)c2)cc1OC,16,4.4,-6.2%,2%,-9,2%,-4%
COC(=O)c1ccc(NC(=O)CN2CCN(c3ccccc3C)CC2)cc1,7,3.7,1.5%,-9%,17,-14%,1%
CN(C)c1cccc(C(=O)OCCNC(=O)c2cccc(S(=O)(=O)N3CCOCC3)c2)c1,-19,-2.6,-8.1%,-18%,4,-18%,-3%
Cc1ccnc(SCCn2c(N3CCC(C)CC3)nc3c2c(=O)n(C)c(=O)n3C)n1,-6,.,1.1%,-12%,.,15%,.
O=C(COc1cccnc1[N+](=O)[O-])Nc1ccc2c(c1)OC(F)(F)O2,-27,3.2,-2.5%,-1%,-7,-9%,2%
CC(=O)N/C(=C/c1ccc(OC(F)F)cc1)C(=O)O,-7,0.0,-3.7%,6%,-7,26%,25%
O=C(NNC(=O)c1cc(OCC(F)(F)F)ccc1OCC(F)(F)F)c1ccc(Cl)c(Cl)c1,0,8.5,-1.5%,-8%[15.4 µM],-20,-23%,?
CC(NC(=O)c1sc2ccccc2c1Cl)C1CCCO1 (stereo not given),9,1.1,-5.4%,3%,2,29%,4%
Cc1ccc(C)c(NC(=O)CN(C)S(=O)(=O)c2ccc(F)cc2)c1,1,6.4,-1.3%,-1%,7,-6%,-1%
CCCNC(=O)c1cc(SC)ccc1Cl,22,0.4,-3.5%,8%,-4,-17%,5%
